# Calb FLC: affects C. albicans growth with fluconazole; 300,000 compounds, 0.57% hits; AID 1979; growth inhibition, % (concentration not given with the values); C. albicans CaCi-2 (fluconazole-resistant clinical isolate) + fluconazole, Alamar Blue growth, 48 h;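 active = most replicates above 75%; inconclusive = exactly half above 75%; inactive = most below 75%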;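 note: all wells also contain fluconazole at 8 µg/ml as a sub-toxic cotreatment; 0% = median of DMSO wells and 100% = median of geldanamycin control wells; wells of about 8 µL received 7.5 nL stock; the first replicate is given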
# T cruzi repl: blocks replication of Trypanosoma cruzi; inhibition, % (concentration not given with the values); 300,000 compounds, 1.4% hits; T. cruzi beta-gal in NIH3T3, luminescence, 90 h;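 active = mean inhibition across valid replicates above about 55%, limit read from the data; inconclusive = mean below that limit but half or more replicates reach it; inactive = mean below it, under half of replicates reach it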;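 note: signal also drops with host cell toxicity which is not excluded here; 0% = plate median of DMSO wells and 100% = zero luminescence signal; higher percent means less beta-gal luminescence so fewer parasites; stock transfer was 50 nL into about 50 µL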
# Beta cell apopt: beta cell apoptosis inhibition | 300,000 compounds, 0.8% hits | protection from apoptosis, % (test concentration not listed) | INS-1E cytokine-induced death, ATP luminescence, 48 h; percent of positive-control rescue, neutral wells zero;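 active = all replicates at 75% or more, or half of them and the mean; inconclusive = half reach 75% but not the mean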;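 note: 0% = cytokine-treated negative control wells and 100% = positive control rescue; higher means more ATP so stronger rescue from cytokine killing; wells of about 40 µL received 100 nL stock; the first replicate is given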
# Beta2AR agonist: activates human beta-2 adrenergic receptor causing internalization. P07550. response, % (test concentration not listed). AID 504454. 340,000 compounds, 0.43% hits. Am2.2-beta2AR cells, FAP receptor internalization, flow cytometry; reference of the scale not given here;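 active = response above a set limit, near 3 SD of response in nonfluorescent compounds, cut at about 42% in these data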;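 note: stock transfer was 100 nL into about 11 µL; a reference agonist was the positive control; negative values mostly stem from fluorescent compounds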
# Target sequence (P07550 whole entry, looked up): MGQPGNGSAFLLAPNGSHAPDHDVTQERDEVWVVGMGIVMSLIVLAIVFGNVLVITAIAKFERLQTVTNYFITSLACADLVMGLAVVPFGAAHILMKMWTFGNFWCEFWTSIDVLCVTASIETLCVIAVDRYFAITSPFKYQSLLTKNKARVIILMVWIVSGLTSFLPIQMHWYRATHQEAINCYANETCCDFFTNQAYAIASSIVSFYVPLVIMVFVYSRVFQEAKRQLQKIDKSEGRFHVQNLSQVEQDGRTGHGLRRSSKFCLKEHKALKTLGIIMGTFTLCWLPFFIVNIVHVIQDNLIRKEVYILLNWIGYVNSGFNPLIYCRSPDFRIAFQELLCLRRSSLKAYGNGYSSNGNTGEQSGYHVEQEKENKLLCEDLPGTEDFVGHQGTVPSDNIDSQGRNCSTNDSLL
# UCH37 inh: human UCH37 deubiquitinating enzyme inhibition; Q9Y5K5; purified proteasome/UCH37, Ub-AMC cleavage fluorescence; 330,000 compounds, 0.33% hits; AID 588478; inhibition, % (no concentration beside the values);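 active = mean of two replicates above 20%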;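 note: 0% = compound-free wells with enzyme and 100% = wells lacking proteasome; stock transfer was 100 nL into about 20 µL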
# Target sequence (Q9Y5K5 whole entry, looked up): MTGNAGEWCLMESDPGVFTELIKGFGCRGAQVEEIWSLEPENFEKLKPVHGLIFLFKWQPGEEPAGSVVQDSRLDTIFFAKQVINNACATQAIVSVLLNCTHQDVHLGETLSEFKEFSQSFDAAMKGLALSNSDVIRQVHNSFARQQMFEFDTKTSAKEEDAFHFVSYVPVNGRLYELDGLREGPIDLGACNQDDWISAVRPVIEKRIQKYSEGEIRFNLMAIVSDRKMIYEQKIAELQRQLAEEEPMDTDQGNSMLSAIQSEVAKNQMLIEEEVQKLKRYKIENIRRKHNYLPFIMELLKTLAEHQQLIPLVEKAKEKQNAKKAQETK
#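 Material: human UCH37 enzyme supplied as purified proteasome complex / Amount: 0.15 nM proteasome as dispensed / Buffer or medium: pH 7.4 Tris-HCl (50 mM) with ovalbumin, ATP-MgCl2, DTT / Times: preincubation 30 min, reaction 25 min, room temperature / Technique: AMC fluorescence from Ub-AMC cleavage, excitation 355 nm, emission 460 nm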
# LANA-H2A inh: blocks KSHV LANA binding to histone H2A/H2B | inhibition, % (no concentration beside the values) | cell-free LANA-H2A/H2B peptide, fluorescence polarization | AID 2629 | 320,000 compounds, 0.6% hits; in the data active = inhibition mostly above about 10%, no sharp cut-off; inactive = mostly below about 6.7%;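 note: stock transfer was 7.5 nL into about 10 µL; 0% = median of vehicle wells and 100% = median of positive control wells; one replicate is shown; the record names a cut of 25% in any replicate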
# A1 inh: inhibitors of the anti-apoptotic protein A1, read as caspase activation; MEF A1-2A-BIM cells, Caspase-Glo 3/7 luminescence, 3 h; percent of clofoctol response, vehicle zero; caspase activation, % (test concentration not listed); 330,000 compounds, 0.066% hits; AID 2462;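 active = over half of replicate activation scores above 10%, or exactly half above 10 with the replicate mean above 10; inconclusive = replicate mean below 10 yet half the replicates above 10; inactive = over half of replicates below 10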;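 note: wells of about 30 µL received 50 nL stock; many hits fall short of the cut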
# RanGTP-Imp inh: inhibitors of RanGTP-importin-beta interaction, primary screen, biochemical, FRET, CFP-Ran, YFP-importin-beta, homogeneous; 300,000 compounds, 1.1% hits; cell-free CFP-Ran/YFP-importin-beta FRET ratio; inhibition, % (no concentration beside the values); AID 2216;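 active = most replicates above 15%; inconclusive = exactly half above 15%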;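 note: 0% = DMSO wells and 100% = Ran loaded with GDP instead of GTP; wells of about 40 µL received 100 nL stock; the first replicate is given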
# * = called active by the depositor; ? = inconclusive; . = not tested or not shown; & = joins results of further samples.
SMILES,Calb FLC,T cruzi repl,Beta cell apopt,Beta2AR agonist,UCH37 inh,LANA-H2A inh,A1 inh,RanGTP-Imp inh
CC1C2C(c3ccccc3)N(C)C(=O)N(C)C2N(C)C(=O)N1C (stereo not given),-9,-12,-4,0,-1.0,-1.1,0.7,4.3
COc1ccc(C(=O)NNC(=O)c2ccncc2)cc1,4,-20,-14,4,-0.5,0.3,-0.6,1.5
CCOC(=O)c1[nH]c(C)c(CCC(=O)O)c1C,-4&-6,-1&4,-4&1,2&-8,1.4&-5.2,1.2&-3.3,-0.3&0.5,-1.8&-3.2
CCOC(=O)[C@@H]1[C@H]2COc3ccccc3[C@@H]2N2C(=O)N(c3cccc(C)c3)C(=O)[C@]12C,-6,-7,-1,5,0.2,-3.3,-0.3,3.1
CCN(CC)S(=O)(=O)c1ccc(C)c(NC(=O)COc2ccc(Br)cc2Cl)c1,-4,-1,-3,-3,-1.1,0.2,1.1,-1.1
Cc1cc(NC(=O)CCC(=O)N(CC(=O)NCC2CCCO2)c2ccccc2C)no1 (stereo not given),5,-7,-2,-8,-0.4,1.5,-0.2,-2.0
O=c1cc(NS(=O)(=O)c2ccccc2)nc(SCc2ccc(Cl)cc2)[nH]1,.,.,5,1,4.0,.,0.6,.
COc1ccc(C2=NOC(C(=O)N3CCN(C(=O)c4ccco4)CC3)C2)cc1OC (stereo not given),5,-16,-4,0,0.5,-5.7,0.3,7.7
O=S(=O)(NC1CCCCCC1)c1cccc(Cl)c1,.,.,-1,-5,0.9,5.8,2.5,.
O=S(=O)(NCCC1=CCCCC1)c1ccc(F)cc1,-13,?,.,-3,-0.3,-2.8,0.6,-2.8
Cc1cccc(COCC(Cc2ccccc2)N2CCN(C(=O)c3cccc(C)c3)CCC2=O)c1 (stereo not given),10,0,-6,-1,1.6,2.7,2.1,1.9
COc1cccc(C2NC(=O)NC(C)=C2C(=O)OCC2CCCCC2)c1 (stereo not given),-1,6,-12,23,-13,2.0,1.2,-3.5
O=C1CCC(C(=O)N2CCC(CO)CC2)CN1Cc1ccc(Cl)cc1 (stereo not given),-11,-14,.,-2,1.2,-2.5,1.3,-5.9
Cc1ccc(Cn2nnnc2CN2CCC(c3nc4ccc(Cl)cc4[nH]3)CC2)cc1,?,-17,9,19,2.9,0.1,0.7,6.5
CCN(C(=O)COc1ccccc1)C1CCCCC1,13,-1,-5,-6,2.3,4.7,0.5,-0.9
O=C(O)CCC(=O)Nc1cccc(C(=O)Nc2cccc(Cl)c2)c1,15,-3,-2,6,1.6,-1.3,-0.4,8.2
CN(CC(=O)Nc1ccccc1Cl)CC(=O)Nc1ccccc1[N+](=O)[O-],4,-1,3,7,1.8,-1.6,0.0,-1.9
Cc1csc(=O)n1CCC(=O)OCC(=O)NCc1ccc(F)cc1,0,-4,.,8,-0.7,-1.9,-0.4,6.0
NS(=O)(=O)c1ccc(CNC(=O)CCSCCC(=O)NCc2ccc(S(N)(=O)=O)cc2)cc1,-1,-31,4,-1,4.2,-0.5,-0.1,-0.6
O=C(Nc1c2c(nn1-c1ccc([N+](=O)[O-])cc1)CS(=O)(=O)C2)c1cccs1,-19,-18,23,-11,5.5,-1.9,-0.4,1.1
CC1CC2=C(C(=O)O1)C(C)Nc1ccccc1N2 (stereo not given),4,-6,-11,5,3.8,.,-0.1,0.0
CC(C)N(C(=O)C[n+]1ccsc1N)c1ccccc1,-12,-5,-1,-3,2.5,8.5,-0.3,-0.6
CCN(CC)c1ccc(NC(=O)c2cccc(F)c2)c(C)c1,-2,-17,7,39,3.6,2.3,0.0,0.2
COc1ccc(S(=O)(=O)Nc2c(C(=O)O)[nH]c3ccc(OC)cc23)cc1,.,-1,-3,3,-37,-4.3,0.7,-2.5
Cc1ccccc1N=C(NOCc1ccc(Cl)cc1Cl)c1nonc1N,-21,?,5,16,1.4,-0.9,0.3,-0.4
Cc1ccc(CN2C(=O)C(CC(C)C)Nc3ncnc(N4CCN(c5ccccn5)CC4)c32)cc1 (stereo not given),-1,17,-6,6,-0.1,1.2,0.9,0.9
O=C(O)CSc1nnc(-c2cccc(S(=O)(=O)N3CCOCC3)c2)n1-c1cccc(Cl)c1,-3,6,2,-6,1.0,-0.4,-0.7,1.2
COc1ccc(NC(=O)c2ccc(-n3cncn3)c([N+](=O)[O-])c2)cc1,2,9,.,5,4.1,-3.7,-0.9,5.0
Cc1cc(C)c2c(n1)SCC(=O)N2CC(=O)Nc1ccc(Br)c(C)c1,-15,25,-2,-1,-0.4,-0.7,0.3,2.7
CCN(CC)C(=O)CSc1nc2cc3c(cc2c(=O)n1Cc1ccc(OC)cc1)OCO3,?,20,-4,-16,1.0,4.1,1.2,0.7
O=C(CSCc1cccs1)N1CCCC1,-2,-17,-7,0,-3.1,-3.3,-0.6,8.3
Oc1ccc(-n2nnnc2SCc2ccccc2Br)cc1,3,-6,.,-5,6.2,-3.2,0.0,1.9
O=C(Nc1nc(-c2ccc(F)cc2)cs1)c1cccc(N2C(=O)CCC2=O)c1,-10,-13,-1,13,-22,-1.4,0.7,5.4
CC(=O)c1cnc2c(-c3ccc(Cl)cc3)c(C)nn2c1C,5,7,2,-9,-1.6,1.8,0.1,5.6
CCOC(=O)c1ccc(N2C(=O)c3cccc4c(C(=O)O)ccc(c34)C2=O)cc1,1,-16,-1,1,3.1,-7.6,-0.4,5.8
COc1cc(OC)c(NC(=S)NCc2ccccc2)cc1Cl,125*,.,-4,-7,1.5,-2.6,1.1,.

# An excerpt from above, reduced to Beta2AR agonist:
SMILES | Beta2AR agonist
COc1ccc(NC(=O)c2ccc(-n3cncn3)c([N+](=O)[O-])c2)cc1 | 5
Cc1ccc(CN2C(=O)C(CC(C)C)Nc3ncnc(N4CCN(c5ccccn5)CC4)c32)cc1 (stereo not given) | 6

# Following part:
SMILES,Calb FLC,T cruzi repl,Beta cell apopt,Beta2AR agonist,UCH37 inh,LANA-H2A inh,A1 inh,RanGTP-Imp inh
CS(=O)(=O)c1ccc(NC(=O)c2cccc(-n3cnnn3)c2)cc1,.,.,3,-8,-3.0,-3.1,-1.0,.
CC1CC(C)CN(C(=O)COC(=O)/C=C/c2ccco2)C1 (stereo not given),.,.,-5,0,2.1,0.7,1.1,.
O=C(COC(=O)c1cccnc1Cl)NCCC1=CCCCC1,-9,0,1,0,5.7,-4.8,-0.1,2.1
COc1ccccc1CNC(=O)C1CC2Cn3c(nc4cc(Cl)c(Cl)cc43)C2N1C (stereo not given),10,4,8,-4,3.1,-1.7,0.8,2.6
CC1(c2ccccc2)CC2CC(c3ccccc3)N1O2 (stereo not given),-10,-7,-8,4,1.0,-1.9,1.3,0.4
O=C(Nc1ccccc1C(=O)O)c1ccc(NC(=O)C2CCCCC2)cc1,-6,-26,-11,1,6.8,0.6,-0.8,2.9
O=C(CC1C(=O)N(Cc2ccccc2)C(=S)N1CCN1CCOCC1)Nc1ccc(F)cc1 (stereo not given),14,14,-15,9,2.5,6.8,0.6,-2.6
Cc1ccccc1CN1CCN(CC(=O)NC(C)c2ccccc2)CC1 (stereo not given),-11,10,-6,2,2.2,-0.7,2.3,-1.9
O=C(O)c1ccc(N2CCOCC2)c(N2C(=O)C3C4C=CC(C4)C3C2=O)c1 (stereo not given),-5,-3,.,0,0.1,1.3,0.6,?
Cc1ccc(-n2nnnc2SCC(=O)NC(C(=O)O)(c2ccccc2)c2ccccc2)cc1C,-11,-14,-6,-1,1.7,-3.1,-0.1,1.1
Cc1ccc2nc(NCc3ccccc3)c(C#N)cc2c1,-1,20,-1,0,-15,-2.4,-0.5,38*
Cn1cnc([N+](=O)[O-])c1Nc1ccc(O)cc1,-3,0,-15,16,52*,1.2,0.3,1.9
O=C(CN1CCCC1)N/N=C/c1ccc(-c2cccc(Cl)c2)o1,12,1,3,8,.,0.4,0.3,1.4
O=C1CN(C(=O)COc2ccccc2F)c2ccccc2N1,0,0,-6,0,0.2,3.7,-0.3,9.2
O=C(NCC1CC1)c1onc(CSc2ccccc2)c1C(=O)NCC1CC1,-1,7,6,-4,3.0,3.7,3.0,?
Cc1cc(NS(=O)(=O)c2ccc(NC(=O)C3CCCCC3)cc2)no1,-1,3,-8,-1,-0.4,4.2,-0.1,3.6
CC(Oc1ccc(F)cc1)C(=O)NN (stereo not given),-3,-9,-2,7,1.1,-0.2,0.2,-2.1
Cc1nn(CCCC(=O)NCc2ccccc2)c(=O)c2nccn12,4,-8,-3,-6,0.6,-4.1,-0.1,?
CC(=O)N(C1=C(N)C(=O)c2ccccc2C1=O)C(C)C,37,-7,7,4,26*,1.0,-1.5,-5.2
O=C(NC1CCCC1)C(c1ccccn1)N(C(=O)c1csnn1)c1ccccc1Cl (stereo not given),-2,3,2,-7,-0.5,-8.1,-0.2,-19
CN(C)c1ccc(C(CNC(=O)c2ccc(C#N)cc2)c2c[nH]c3ccccc23)cc1 (stereo not given),3,13,-1,-6,4.6,-2.0,0.0,4.5
C=CCNc1nc2c(c(=O)n(C)c(=O)n2C)n1CC(=C)C,-5,3,-5,2,5.1,-1.8&11,0.0,-2.3
COC(=O)c1nnn(CC(=O)NC(=O)Nc2cccc(Cl)c2C)c1C(=O)OC,2,-1,-10,-5,.,4.0,0.0,8.1
CN(C)CC(C)(C)CN=Cc1c(O)[nH]c2ccccc12,27,61*,-2,-7,11,3.0,-0.9,1.7
CS(=O)(=O)Nc1ccc(C(=O)Nc2ccc3c(c2)OCCO3)cc1,-1,8,-2,7,6.7,-7.6,-2.4,2.1
C=CCn1c2ccccc2c2nnc(SCC(=O)O)nc21,5,6,9,0,8.6,-2.2,-1.6,9.8
O=C(CCc1ccccc1)NNC(=O)COc1ccc(Cl)cc1,28,-34,-10,-2,1.8,78*,0.9,-5.7
Cc1cccnc1Nc1nc(-c2ccc(O)c(O)c2)cs1,-4,-13,1,7,3.4,-10,-1.9,0.6

# Entries from the list above containing an NH in an aromatic ring:
SMILES,Calb FLC,T cruzi repl,Beta cell apopt,Beta2AR agonist,UCH37 inh,LANA-H2A inh,A1 inh,RanGTP-Imp inh
CCOC(=O)c1[nH]c(C)c(CCC(=O)O)c1C,-4&-6,-1&4,-4&1,2&-8,1.4&-5.2,1.2&-3.3,-0.3&0.5,-1.8&-3.2
O=c1cc(NS(=O)(=O)c2ccccc2)nc(SCc2ccc(Cl)cc2)[nH]1,.,.,5,1,4.0,.,0.6,.
Cc1ccc(Cn2nnnc2CN2CCC(c3nc4ccc(Cl)cc4[nH]3)CC2)cc1,?,-17,9,19,2.9,0.1,0.7,6.5
COc1ccc(S(=O)(=O)Nc2c(C(=O)O)[nH]c3ccc(OC)cc23)cc1,.,-1,-3,3,-37,-4.3,0.7,-2.5
CN(C)c1ccc(C(CNC(=O)c2ccc(C#N)cc2)c2c[nH]c3ccccc23)cc1 (stereo not given),3,13,-1,-6,4.6,-2.0,0.0,4.5
CN(C)CC(C)(C)CN=Cc1c(O)[nH]c2ccccc12,27,61*,-2,-7,11,3.0,-0.9,1.7

# Screening results from PubChem BioAssay.
